StopGo reporter = FMDV 2A StopGo reporter, luciferase signal. Potency, µM (doses to about 57.9 µM), for the others: at the highest dose signal change, negative = less light. human cells with a luciferase reporter of 2A StopGo recoding; control for the full effect not named in the record. 410,000 compounds, 1.2% hits; active = well fitted falling curve with a large enough effect; inconclusive = small, poorly fitted or top-dose-only effect; inactive = no such curve, though single readings can be large or run the other way; tested in HEK293T cells; further: on the % scale 0 is the no-effect control and ±100 the full control effect; nearly all actives have a fitted effect of over 45% in size; luciferase light after 4 h
Cruzain inh Det = blocks cruzain activity in presence of Triton detergent; P25779; purified cruzain, Z-FR-AMC fluorescence, 0.01% Triton; Potency, µM, without a hit: max response, negative = inhibition, most hits filed as inhibitors; 200,000 compounds, 0.43% hits; active means well fitted curve in the direction sought with a large enough effect; inconclusive means small, poorly fitted or top-dose-only effect, or another doubt; inactive means no such curve, though single readings can be large; an effect the other way counts as inactive or inconclusive;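 further: plate controls were neutral wells for no effect and buffer without enzyme for full effect; nearly all actives have a fitted effect of over 40% in size; top concentration of the series not given in the record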
Target sequence (P25779 123-467 limits assumed): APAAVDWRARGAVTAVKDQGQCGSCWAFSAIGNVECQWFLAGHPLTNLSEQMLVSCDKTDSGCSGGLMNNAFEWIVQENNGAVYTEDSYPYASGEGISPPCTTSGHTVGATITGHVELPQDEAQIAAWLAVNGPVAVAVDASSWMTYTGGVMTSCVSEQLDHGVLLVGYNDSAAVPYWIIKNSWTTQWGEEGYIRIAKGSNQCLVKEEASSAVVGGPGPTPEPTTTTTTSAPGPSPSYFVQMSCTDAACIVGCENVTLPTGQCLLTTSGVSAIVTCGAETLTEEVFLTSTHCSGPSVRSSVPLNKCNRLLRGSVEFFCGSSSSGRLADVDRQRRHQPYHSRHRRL
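15 min RT preincubation of 1.5 nM cruzain with compound, then 2 uM Z-FR-AMC added; kinetic AMC fluorescence, 60 s delta. Triton X-100 0.01%, pH 5.5.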
MARV entry inh = inhibitors of Marburg virus binding or cell entry; Potency, µM (series often up to 37.8 µM), without a hit: at the top dose activity change, negative = inhibition, actives largely listed as inhibitors; Marburg virus pseudotyped entry inhibition, cell reporter; control for the full effect not named in the record; about a third of the inactives were read at about 46 µM; 300,000 compounds, 1.8% hits; active = well fitted inhibition curve with a large enough effect; inconclusive = small, poorly fitted or top-dose-only effect, or effect the other way; inactive = flat fitted curve, though single readings scatter; tested in HEK293 cells; about a fifth of its hits are not listed in these tables; further: on the % scale 0 is the no-effect control and ±100 the full control effect; luciferase read-out
Cruzain noTriton = blocks cruzain activity in detergent-free assay | P25779 | Potency, µM, inactives show max response, negative = inhibition, hits mostly inhibitors | 200,000 compounds, 2.3% hits | purified cruzain, Z-FR-AMC fluorescence, no detergent | AID 1476; active means well fitted curve in the direction sought with a large enough effect; inconclusive means small, poorly fitted or top-dose-only effect, or another doubt; inactive means no such curve, though single readings can be large; an effect the other way counts as inactive or inconclusive;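 further: plate controls were enzyme without inhibitor for no effect and buffer without enzyme for full effect; nearly all actives have a fitted effect of over 40% in size; top concentration of the series not given in the record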
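Purified cruzain at 1.5 nM, pre-incubated 15 min with compound at room temperature in 100 mM sodium acetate pH 5.5, 5 mM DTT, 0.00005% Triton X-100. Reaction started with 2 uM Z-FR-AMC; AMC fluorescence increase over 60 s gives rate.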
NS1 inh = influenza NS1 inhibition | 270,000 compounds, 0.4% hits | AID 2326 | Potency, µM (series often up to 46.1 µM), without a hit: at the highest dose activity, positive = more growth | S. cerevisiae slowed by influenza A NS1, growth recovery by OD600; further: actives are rising curves; nearly all actives have a fitted effect of over 50% in size
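Compounds were scored for reversing the slow growth caused by influenza A NS1 in S. cerevisiae, measured by optical density at 600 nm. Assay medium contained 2% galactose at pH 6.0; NS1-free yeast of the same strain were the positive control.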
SARS PLpro yeast = inhibitors of SARS-CoV papain-like protease in yeast; 330,000 compounds, 0.19% hits; S. cerevisiae expressing SARS-CoV PLpro, growth rescue; control for the full effect not named in the record; Potency, µM (highest dose often 32.9 µM), for the others: at the highest dose activity, positive = growth rescue; further: 0% is about no effect; nearly all actives have a fitted effect of over 55% in size; growth read by luminescence after 48 h
LASV entry inh = blocks Lassa virus binding to or entry into cells | Lassa virus pseudotype entry inhibition, cell reporter; control for the full effect not named in the record | 300,000 compounds, 1.2% hits | AID 540256 | Potency, µM (top dose mostly 37.9 µM), for inactives: at the top dose activity change, negative = inhibition, hits mostly inhibitors; active means well fitted inhibition curve with a large enough effect; inconclusive means small, poorly fitted or top-dose-only effect, or effect the other way; inactive means flat fitted curve, though single readings scatter; tested in HEK293 cells; further: on the % scale 0 is the no-effect control and ±100 the full control effect; nearly all actives have a fitted effect of over 50% in size; luciferase read-out
RE007 growth inh = less growth of the S. pombe RE007 Vpr strain; S. pombe RE007 Vpr strain, BacTiter-Glo ATP luminescence, 24 h; control for the full effect not named in the record; Potency, µM (doses to about 92.2 µM), for inactives: at the highest dose activity change, negative = less growth; 360,000 compounds, 0.21% hits; active = well fitted falling curve with a large enough effect; inconclusive = small, poorly fitted or top-dose-only effect; inactive = no such curve, though single readings can be large or run the other way;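 further: on the % scale 0 is the no-effect control and ±100 the full control effect; nearly all actives have a fitted effect of over 50% in size; the assay follows cell death caused by Vpr and the record does not say whether a fall means rescue or toxicity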
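Fission yeast strain RE007, carrying one chromosomally integrated HIV-1 vpr copy, was seeded at OD 0.01 in PMG+AL medium with 23 nL pinned compound. After 24 h at 30 °C and 99% humidity, viability was read by BacTiter-Glo luminescence.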
An asterisk follows results filed as active; ? = inconclusive; · = no result given; & = joins results of further samples; [ ] = remark or other dose. Unless noted, the call rests on the fitted dose curve; in most records, active means well fitted rising curve with a large enough effect; inconclusive means small, poorly fitted or top-dose-only effect; inactive means no such curve, though single readings can be large or run the other way. Potency means the concentration at half of the fitted maximal effect.

Values run as follows: RE007 growth inh	LASV entry inh	MARV entry inh	SARS PLpro yeast	NS1 inh	Cruzain inh Det	Cruzain noTriton	StopGo reporter
CCCCNC(=O)C1CCN(c2nc(C)cc(C)n2)CC1
→ 10%	-11%	-13%	1%	·	·	·	-13%
CCCn1c2ccccc2c2cc(C(=O)O)ccc21
→ -7%	·	·	-34%	-200%	-6.6%	?	17%
Cc1ccccc1NC(=O)/C=C1\SC(=O)NC1=O
→ -29%	-7%[46.1 µM]	-15%[46.1 µM]	-4%	·	·	·	-27%
O=C(Nc1ccccc1Cl)OC1CCCCC1
→ 44%	15%	-3%[46.1 µM]	-2%	-2%	·	·	63%[activator]
O=C(Nc1cccc(Br)c1)c1ccc(CSc2ccccc2)cc1
→ 1%	3%	10%	1%	13%	3.8%	-9%	2%
O=C(Oc1ccc(C(=S)N2CCOCC2)cc1)c1ccc([N+](=O)[O-])cc1[N+](=O)[O-]
→ -17%	·	·	3%	13%	·	·	-11%
COc1ccc(C(=O)NCC(=O)N/N=C/c2cn(C)c3ccccc23)cc1OC
→ 5%	-25%[46.1 µM]	3%[46.1 µM]	0%	-5%	·	·	-16%
O=C(NCC1CCCO1)c1ccc2c(=O)n(Cc3ccc(Cl)cc3)c(=S)[nH]c2c1 (centres undefined)
→ -7%	?	?	0%	·	·	·	-11%
Cc1ccccc1NC(=O)COC(=O)Cc1cccc(C(F)(F)F)c1
→ -7%	2%	2%	1%	11%	-4.2%	9%	-11%
COc1ccc(CCN(C)C2CCCN(C(=O)CCSC)C2)cc1OC (centres undefined)
→ -2%	·	·	-1%	-6%	·	·	-8%
COCCN1C(=O)N(c2ccc(Cl)cc2)C(=O)C1CC(=O)Nc1cc(OC)cc(OC)c1 (centres undefined)
→ 4%	-3%	-6%	2%	-4%	·	·	-13%
CCc1cccc(NC(=O)Cn2nc(C)c3sc4ccccc4c3c2=O)c1
→ ·	-28%[46.1 µM]	1%[46.1 µM]	·	·	-7.8%	?	-12%
CC(C)C(NC(=O)c1ccccc1NC(=O)C(C)(C)C)C(=O)N1CCOCC1 (centres undefined)
→ 3%	?	5%	3%	·	·	·	-12%
CCOCCc1nnc(NC(=O)C(CC)c2ccccc2)s1 (centres undefined)
→ -13%	6%	12%	-7%	-67%	1.5%	1%	-21%
O=S(=O)(NNc1nccc(C(F)(F)F)n1)c1cccc(Cl)c1Cl
→ 0%	·	·	1%	1%	·	·	-5%
COc1ccc(C(=O)Nc2ccc3[nH]ncc3c2)cc1OC
→ 0%	13%	6%	-4%	-8%	·	·	27%
C=CCC1C=C(C)CC(CC=C)N1 (centres undefined)
→ -6%	-3%[46.1 µM]	3%[46.1 µM]	4%	·	·	·	9%
Cc1ccc(C2CC2c2n[nH]c(=S)n2-c2ccc(C)cc2)cc1 (centres undefined)
→ -9%	?	-11%	?	12%	-10%	-5%	5%
COC(=O)c1ccc(S(=O)(=O)N2CCN(C(c3ccccc3)c3ccccc3)CC2)n1C
→ -12%	·	·	-1%	5%	·	·	0%
Cc1ccc(-c2cc(C(=O)Nc3cccnc3)[nH]n2)c(O)c1C
→ -18%	?	?	0%	-4%	·	·	-3%
Clc1nc(-c2ccccc2)cc(-c2ccccc2)n1
→ -8%	-12%	?	14%	-6%	-8.5%	-5%	-22%
O=C(NCCc1ccccc1)c1cc(=O)[nH]c2ccccc12
→ 3%	-27%[46.1 µM]	10%[46.1 µM]	7%	·	·	·	4%
CC(OC(=O)CCc1nc2ccccc2c(=O)[nH]1)C(=O)NC1CCCC1 (centres undefined)
→ -9%	17%	-12%	10%	-9%	0.8%	3%	-34%
Cn1c(=O)c([N+](=O)[O-])c(Oc2ccccc2)c2ccccc21
→ 9%	?	?	-1%	-6%	·	·	28µM*
COc1ccc(-c2nc(CS(=O)CC(=O)NCCc3ccc(C)cc3)c(C)o2)cc1OC (centres undefined)
→ -19%	16%[46.1 µM]	-1%[46.1 µM]	-18%	-9%	·	·	-12%
COc1ccc(-c2cc(C(=O)Nc3sc4c(c3C(N)=O)CCCC4)no2)cc1
→ ·	21%[46.1 µM]	?	·	·	-4.2%	-10%	10%
COc1ccc(Cl)cc1C(=O)NC(=S)Nc1ccccc1N1CCOCC1
→ 11%	·	·	2%	3%	·	·	-18%
O=C(CC(c1ccccc1)(c1ccccc1)c1ccccc1)N[C@@H](Cc1ccc(O)cc1)C(=O)O
→ 38%	·	·	0%	4%	·	·	-8%
CCc1ccc(CNC(=O)C(C)n2ccc3cc(S(=O)(=O)N4CCCCCC4)ccc32)cc1 (centres undefined)
→ ·	-17%[46.1 µM]	·	·	·	-4.3%	-20%	29%
O=C(O)C1(c2cccc(Cl)c2)CCC1
→ -6%	1%	2%	-4%	-6%	4.8%	0%	-22%
N#Cc1cccc(NC(=O)Cc2ccsc2)c1
→ -4%	-4%[46.1 µM]	-14%[46.1 µM]	-1%	-3%	·	·	45%[activator]
CN(CC(=O)Nc1ccccc1Cl)C(=O)c1cc(=O)[nH]c2ccccc12
→ -1%	3%	3%	0%	5%	·	·	8%
O=C(c1cccc(F)c1)N1CCc2ccccc21
→ 8%	-18%	-2%	-9%	-14%	0.1%	5%	·
COc1cccc(-c2cc(C(=O)Nc3cnn(Cc4ccccc4C)c3)no2)c1
→ -10%	·	·	-2%	-10%	0.1%	8%	-24%
COc1ccc(NC(=O)CSc2nccn2-c2ccccc2)c(OC)c1
→ -2%	2%	-8%[46.1 µM]	-10%	-29%	-1.0%	?	-15%
CCOC(=O)c1c(NC(=O)C2CCCO2)sc2c1CCC2 (centres undefined)
→ -27%	-22%	22%[46.1 µM]	·	-51%	-7.7%	?	-13%
O=C(COc1ccc(Cc2ccccc2)cc1)c1ccc(F)cc1
→ -13%	?	?	-7%	-1%	-5.7%	8%	14%
Cc1cc(CN2CCC(N3CCC(C(=O)NC4CC4)CC3)CC2)cc(C)c1O
→ 21%	12%	-18%	2%	7%	·	·	-11%
COc1ccc(-c2nc3ccc(C(=O)NCC(OC)OC)cc3nc2-c2ccc(OC)cc2)cc1
→ 15%	-10%	?	-2%	·	·	·	?
COc1ccc(C(=O)NC(Nc2ccc(C)cc2)C(Cl)(Cl)Cl)cc1 (centres undefined)
→ -18%	-11%	?	-4%	-3%	-6.2%	-10%	?
CCCCNC(=O)OC(C)CNC(=O)Oc1cccc(C)c1 (centres undefined)
→ -25%	-1%	-3%	3%	-9%	-14%	-6%	-10%
COC(=O)c1cc(C)nc2c1c(=O)nc(SCc1c(C)cc(C)cc1C)n2C1CC1
→ ·	-20%[46.1 µM]	·	·	·	-5.7%	24%	?
Cc1ccc(C)c(CN2CCC(CNC(=O)Nc3ccc(Br)cc3F)CC2)c1
→ 1%	?	4.5µM*	-2%	0%	-12%	9%	?
Cc1cccc(NC(=O)C(C)Sc2nc3nc(C)cc(C)n3n2)c1 (centres undefined)
→ 4%	1%	-13%	-1%	·	·	·	-15%
CCOC(=O)CNC(=S)N(CCCN1CCCCCC1)Cc1cccs1
→ -17%	8%[46.1 µM]	?	-1%	·	·	·	-5%
O=C1c2ccccc2NC(c2c(Cl)cccc2Cl)N1Cc1ccccc1 (centres undefined)
→ 12%	?	?	-7%	?	-9.1%	?	-25%
CCN(CC)C(=O)CSc1nc2cc3c(cc2c(=O)n1Cc1ccco1)OCO3
→ -12%	-5%	0%	-1%	·	·	·	-5%
Cc1cc(C)nc(SCC(=O)NC2=NN=C(c3ccc(Br)cc3)CS2)n1
→ 18%	-12%	0%	-7%	-48%	1.4%	?	?
COc1cccc(CNC(=O)COc2cc(=O)n(C)c3ccccc23)c1
→ ·	?	2%[46.1 µM]	·	·	-1.5%	-14%	-1%
COc1cc(NC(=O)CCc2c(C)noc2C)c(Cl)cc1C(=O)O
→ -9%	11%[46.1 µM]	?	5%	·	·	·	20%

Following part
Values run as follows: RE007 growth inh	LASV entry inh	MARV entry inh	SARS PLpro yeast	NS1 inh	Cruzain inh Det	Cruzain noTriton	StopGo reporter
CCOC(=O)CNC(=O)Nc1ccccc1C(=O)OC
→ 19%	17%	21%&21%	3%	6%	2.0%	20%	6%
Cc1cc(Br)c(NC(=O)c2ccccc2[N+](=O)[O-])cc1C
→ -4%	·	·	0%	2%	·	·	-2%
CCOC(=O)c1ccccc1OCc1cc(/C=N/n2cncn2)ccc1OC
→ 3%	-18%	?	-5%	0%	-2.2%	?	?
CCN1C(=O)c2ccccc2S(=O)c2ccc(C(=O)N3CCCCCC3)cc21 (centres undefined)
→ 3%	·	0%	2%	-12%	3.7%	-28%	-14%
Cc1cccc(-n2c(O)c(/C=N/N3CCOCC3)c(=O)[nH]c2=S)c1
→ 7%	-12%	9%	-7%	-5%	-11%	-10%	-9%
O=[N+]([O-])c1cc(/C=N/O)ccc1Oc1cccc(Cl)c1
→ 0%	6%	0%[46.1 µM]	-3%	-32%	·	·	3%
CCn1c(SCC(=O)N2CCC(C)CC2)nnc1-c1ccco1
→ -2%	11%[46.1 µM]	2%[46.1 µM]	6%	-7%	·	·	-3%
Cc1ccc(/C([O-])=C(/C(=S)NCc2ccco2)[n+]2ccccc2)cc1[N+](=O)[O-]
→ -21%	1%[46.1 µM]	-8%[46.1 µM]	3%	·	·	·	44%[activator]
CCOc1ccccc1CNC(=O)c1ccc(Sc2ccc(Cl)cc2)c(NC(C)=O)c1
→ ·	-1%	-22%	-30%	28%	-4.2%	-2%	-14%
N#CCSc1ccc(-c2nc3ccccc3[nH]2)cn1
→ -29%	?	?	-3%	-6%	·	·	19%
COc1cc(/C=C(/NC(=O)c2ccccc2)C(=O)N2CCOCC2)c([N+](=O)[O-])cc1OC
→ 2%	5%	15%	1%	-14%	·	·	-20%
O=C(Cc1cn2ccsc2n1)Nc1nc2c(s1)CCCC2
→ 5%	?	?	-3%	-11%	-9.3%	-9%	22%
COc1ccc(S(=O)(=O)CCc2nnc(NC(=O)c3cccs3)s2)cc1
→ 8%	14%	?	-7%	-6%	9.7%	?	12%
CCc1c(C)sc(NC(=O)c2cc(-c3cc(OC)ccc3OC)on2)c1C#N
→ -4%	-14%	?	5%	-5%	5.8%	-14%	-10%

Screening data as filed in PubChem.

Rows are unselected; overall some 4.5% were active at least once.
